High-throughput results as filed in PubChem BioAssay.
GIV-Gai inh: inhibitors of GIV GBA-motif binding to rat Galpha-i3 | P08753 | Galpha-i3/FITC-GIV peptide fluorescence polarization, 90 min; hits give low values; scaled: aluminum fluoride 0%, vehicle 100% | percent of control (FP), % (no concentration beside the values) | hit rate 0.42% among 210,000 | AID 1224905;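 active = replicate mean at 85% of control or lower, very high polarization wells dropped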;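 also: wells of about 15 µL received 100 nL stock; the first replicate is given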
Target sequence (P08753 whole entry, looked up): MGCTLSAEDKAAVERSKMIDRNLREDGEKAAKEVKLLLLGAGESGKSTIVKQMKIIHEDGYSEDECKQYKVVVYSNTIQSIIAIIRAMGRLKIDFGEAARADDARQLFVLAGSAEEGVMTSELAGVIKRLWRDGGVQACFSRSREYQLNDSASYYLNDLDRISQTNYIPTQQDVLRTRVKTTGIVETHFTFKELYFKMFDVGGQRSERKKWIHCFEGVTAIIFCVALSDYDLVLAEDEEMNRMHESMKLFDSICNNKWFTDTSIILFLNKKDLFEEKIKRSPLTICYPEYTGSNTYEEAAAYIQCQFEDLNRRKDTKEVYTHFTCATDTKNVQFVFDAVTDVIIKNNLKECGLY
HCMV UL50-53 inh: disrupts HCMV UL50-UL53 complex binding. hit rate 0.15% among 190,000. HTRF UL50-UL53 interaction, normalized percent inhibition. inhibition, % (no concentration beside the values);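 active = both replicates at 50% or more, plus weaker picks with an unusually low signal ratio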;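 also: stock transfer was 100 nL into about 20 µL; 0% = negative control wells and 100% = wells with untagged competitor protein; inactives centre near -12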
Sa growth inh: inhibitors of Staphylococcus aureus growth at 42 °C | relative growth, % (no concentration beside the values) | S. aureus RN4220 growth, OD600, 20 h; hits give low values | hit rate 0.53% among 170,000;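 active = growth at 42 °C up to 50% and 20 or more points under that at 30 °C, or under 10% at both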;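 also: 300 nL library stock went into each well; scaled to the means of positive and negative controls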
Sa growth inh second temp: further read-out of Sa growth inh, marked with its call; relative growth, %; measured here: growth at 30 °C;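 optical density after 20 h as mean of two plates; 100% = untreated growth and lower means inhibition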
* = called active by the depositor; nt = no result given; & = joins results of further samples. A portion of the library; the hit share may differ from the screen's.

nr | compound | HCMV UL50-53 inh | Sa growth inh second temp | GIV-Gai inh | Sa growth inh
1 | N#CC(c1cccnc1)N1CCOCC1 (centres undefined) | 4 | nt | 99 | nt
2 | Nc1c(C(=O)Nc2ccc(Cl)cc2)sc2nc3c(cc12)N1CCC3CC1 | -55 | 95 | 104 | 101
3 | CCOc1ccc(CNc2nc3ccccc3n2CCN(CC)CC)cc1 | -9 | nt | 96 | nt
4 | CC12CCC3C(CCC4CC(N)CCC43C)C1CCC2O (centres undefined) | 2 | 108 | 104 | 82
5 | C(=NCC1CCCO1)c1cccnc1 (centres undefined) | 4 | 93 | nt | 128
6 | COc1ccc2c(CCN)c[nH]c2c1 | -12 | 85 | 98 | 85
7 | O=C1Nc2ccccc2C1=Cc1nc2ccccc2c(=O)n1-c1ccc(Br)cc1 | -14 | nt | 104 | nt
8 | Cc1ccc(CSc2nnc(OC(=O)N(C)C)n2-c2cccc(Cl)c2)cc1 | -1 | 101 | 103 | 88
9 | CCC/C(=N\O)c1c[nH]c2ccccc12 | -21 | 43 | 112 | 76
10 | Cc1cccc2nc(CBr)cn12 | -20 | 88 | nt | 107
11 | CN1CCN(c2ncnc3c2cnn3C)CC1 | 0 | 88 | 95 | 94
12 | CCCCCCCC1C(=O)NC(=O)NC1=O | -19 | 91 | 105 | 89
13 | Cc1cccc(C)c1NC1=NC(C)(C)CS1 | 0 | 86 | 106 | 118
14 | CC1CCCCN1C(=O)Cn1cc(C(=O)c2ccccc2)c2ccccc21 (centres undefined) | nt | 82 | 94 | 109
15 | N#CC(C#N)=Cc1ccc(-c2cccs2)s1 | -58 | 82 | 122 | 94
16 | O=C(COc1ccc(Oc2ccccc2)cc1)N1CCN(Cc2ccccc2)CC1 | -17 | 92 | nt | 93
17 | Cc1nc(CC(=O)N2CCN(C/C=C/c3ccccc3)CC2)cs1 | -26 | 85 | nt | 77
18 | Cc1cccc(CN2CC=C(c3noc(CCC(=O)Nc4ccc(C)c(F)c4)n3)CC2)c1 | nt | 71 | 103 | 123
19 | O=C(COc1ccc(Cl)cc1)N1CCN(CCc2ccccn2)CC1 | -1 | nt | 96 | nt
20 | CCCC1=Nc2cc(C(=O)NCCCN(CC)CC)ccc2Sc2ccccc21 | 0 | 86 | 105 | 125
21 | CC(C)NCCc1c[nH]c2ccccc12 | 8 | 92 | 104 | 100
22 | Cc1ccc(S(=O)(=O)C2(C(=O)N3CC4CC(C3)c3cccc(=O)n3C4)CC2)cc1 (centres undefined) | -24 | 90 | 105 | 91
23 | CCOc1ccc2nc(NC(=O)c3cccn(Cc4ccccc4C)c3=O)sc2c1 | nt | 90 | 107 | 100
24 | COc1cccc(C(c2c(O)[nH]c(=O)[nH]c2=O)N2CCCC(C)C2)c1OC (centres undefined) | 4 | 85 | 96 | 92
25 | COC(=O)Cn1cc(C=C2C(=O)N(C)C(=O)N(C)C2=O)c2ccccc21 | -15 | 105 | -2.1* | 120
26 | O=C1CC(=O)N(CCC2=CCCCC2)C(=O)N1 | 6 | 83 | 131 | 99
27 | CN1CCC2(CC1)CC(=O)c1ccccc1O2 | -4 | 90 | 105 | 95
28 | COc1ccc2[nH]cc(C3=CCNCC3)c2c1 | -20&-36 | 92 | nt | 95
29 | Nc1cc2c(ncn2CCOCP(=O)(O)O)c(=O)[nH]1 | 56 | nt | 93 | nt
30 | Brc1ccc(CN2CCNCC2)s1 | -15 | 96 | nt | 95
31 | O=C(COc1ccc(C=C2C(=O)NC(=O)NC2=O)cc1)NCC1CCCO1 (centres undefined) | -23 | 91 | 102 | 108
32 | COc1cc(C)cc(CN2CC=C(c3ccccc3)CC2)c1O | -22 | 84 | nt | 68
33 | Cc1nn(Cc2ccccc2)cc1C(=O)O | 0 | 101 | 106 | 97
34 | Clc1ccc(NCCN2CCCCCC2)nn1 | -6 | 83 | 101 | 104
35 | CC(C)CCn1c(CC(C)(C)C)nc2ccccc21 | nt | 44 | 104 | 89
36 | O=C(c1ccc(CS(=O)(=O)c2ccc(Br)cc2)o1)N1CCC2(CC1)OCCO2 | 15 | 91 | 106 | 96
37 | O=C(Cc1cccs1)N1CCN(CCc2ccccc2)CC1 | 9 | 101 | 108 | 111
38 | CCc1nc(SC)ncc1C(=O)Nc1ccc(Cl)cc1C(=O)c1ccccc1 | nt | 102 | 109 | 109
39 | CCCN1CCC2(CC1)NCCc1[nH]cnc12 | -20 | nt | 98 | nt
40 | C=CCN1CC[C@]23c4c5ccc(O)c4O[C@H]2C(=O)CC[C@@]3(O)[C@H]1C5 | -29&-16&-12&-55 | 91 | 99 | 92
41 | CN1C(=O)CN=C(c2ccccc2)c2cc(Cl)ccc21 | -45 | 98 | nt | 100
42 | CC1=C(C(=O)OC(C)C)C2(C(=O)Nc3ccccc32)C(C#N)=C(N)O1 (centres undefined) | -20 | nt | 98 | nt
43 | CCN(CC)[P+](NC(=O)c1ccccc1)(c1ccccc1)N(CC)CC | -4 | 92 | nt | 104
44 | CN(C)CC(=O)c1ccc2cc[nH]c2c1 | -28&-49 | 89 | 106&97 | 100
45 | NC[C@@H]1CCCN2CCCC[C@H]12 | -4 | 90 | nt | 99
46 | CN(C)CC#CCN1CCCC2(CCOC(C)(C)C2)C1 (centres undefined) | 3 | 84 | nt | 119
47 | ClCc1nc2ccccc2[nH]1 | -1 | nt | 149 | nt
48 | COc1ccc2c(c1)c(C(=O)O)c(C)n2C1CCCCC1 | -27 | 88 | nt | 86
49 | CNC(=O)Oc1c(Br)cc2sc(=O)oc2c1Br | -16 | 66 | 99 | 70
50 | c1cncc(C2CCCCN2Cc2ccc3c(c2)OCO3)c1 (centres undefined) | -31 | 91 | 103 | 94
51 | Cn1cnc(CCN)c1 | -20 | nt | 102 | nt
52 | CCOC(=O)C1CCN(/C=C2\C(=O)NC(=S)N(CC)C2=O)CC1 | 0 | 102 | 109 | 106
53 | CC12CNCC(C)(CN(Cc3ccccc3)C1)C2 | -11 | 88 | 103 | 97
54 | COc1ccc(CN2C(=O)CC(=O)NC2=S)cc1 | -24 | 86 | 97 | 92
55 | COc1ccccc1Oc1c(C)oc2cc(OC(=O)N(C)C)ccc2c1=O | -3 | 91 | 105 | 101
56 | O=C1/C(=C\c2ccccc2)N2CCC1CC2 | 7 | 119 | 97 | 110

(cont.)
nr | compound | HCMV UL50-53 inh | Sa growth inh second temp | GIV-Gai inh | Sa growth inh
57 | COc1cc2[nH]c(=O)n(-c3ccc(C)cc3)c(=O)c2cc1OC | -5 | 91 | 109 | 110
58 | Cc1ccc(-c2cn3c(n2)sc2cc(C(=O)N4CCC5(CC4)OCCO5)ccc23)cc1 | -20 | 67 | 102 | 102
59 | CC12CCC3C4CCC(=O)C=C4CCC3C1CCC2O (centres undefined) | -19 | 84 | 102 | 92
60 | NCCc1cc(O)c(O)cc1O | -22 | 64 | nt | 84
61 | COc1cc(C=C2C(=O)NC(=O)NC2=O)ccc1OCc1ccc([N+](=O)[O-])cc1 | -24 | nt | 99 | nt
62 | CCC(C)n1c(C)cc(C(N)=O)c1C (centres undefined) | -5 | 96 | nt | 92
63 | CCCCCCCC1C(=O)NC(=S)N(c2ccccc2)C1=O (centres undefined) | 9 | nt | 107 | nt
64 | Cc1cc(-n2c(/C=C/c3cccs3)nc3ccccc3c2=O)ccc1Br | nt | 102 | 106 | 112
65 | C[N+]1(C)C2CCC1CC(OC(=O)C(CO)c1ccccc1)C2 (centres undefined) | -33&-30&-6 | 94&94 | 108&107&104 | 90&77
66 | C=CCOc1c(OC)cccc1C1SCC(=O)Nc2n[nH]c(C)c21 (centres undefined) | 14 | nt | 100 | nt
67 | CC12CCC3C(CC=C4CC(O)CCC43CO)C1CCC2OC(=O)c1ccccc1 (centres undefined) | 7 | 72 | 109 | 98
68 | O=C(Cc1ccccc1)N1CCN(C/C=C/c2ccccc2)CC1 | -4 | 78 | 100 | 88
69 | COc1ccc2[nH]c(C)c(CCNCc3ccc(C#N)cc3)c2c1 | 7 | 102 | 108 | 92
70 | CCCCC(=O)Oc1cc2c(C(=O)OCC)c(C)n(CCCC)c2c2ccccc12 | 23 | nt | 104 | nt
71 | CN(C)C(=O)Oc1cc(=O)n(C)c2ccccc12 | -1 | 75 | 100 | 90
72 | Cc1ccc(NC(=O)Cn2cc(C(=O)c3ccccc3)c3ccccc32)c(C)c1 | -13 | 86 | 103 | 99

Reformatted with values under each structure: part of the list above
Value order: HCMV UL50-53 inh, Sa growth inh second temp, GIV-Gai inh, Sa growth inh
46	CN(C)CC#CCN1CCCC2(CCOC(C)(C)C2)C1 (centres undefined)
  3, 84, nt, 119
47	ClCc1nc2ccccc2[nH]1
  -1, nt, 149, nt
48	COc1ccc2c(c1)c(C(=O)O)c(C)n2C1CCCCC1
  -27, 88, nt, 86
49	CNC(=O)Oc1c(Br)cc2sc(=O)oc2c1Br
  -16, 66, 99, 70
50	c1cncc(C2CCCCN2Cc2ccc3c(c2)OCO3)c1 (centres undefined)
  -31, 91, 103, 94
51	Cn1cnc(CCN)c1
  -20, nt, 102, nt
52	CCOC(=O)C1CCN(/C=C2\C(=O)NC(=S)N(CC)C2=O)CC1
  0, 102, 109, 106
53	CC12CNCC(C)(CN(Cc3ccccc3)C1)C2
  -11, 88, 103, 97
54	COc1ccc(CN2C(=O)CC(=O)NC2=S)cc1
  -24, 86, 97, 92
55	COc1ccccc1Oc1c(C)oc2cc(OC(=O)N(C)C)ccc2c1=O
  -3, 91, 105, 101
56	O=C1/C(=C\c2ccccc2)N2CCC1CC2
  7, 119, 97, 110
57	COc1cc2[nH]c(=O)n(-c3ccc(C)cc3)c(=O)c2cc1OC
  -5, 91, 109, 110
58	Cc1ccc(-c2cn3c(n2)sc2cc(C(=O)N4CCC5(CC4)OCCO5)ccc23)cc1
  -20, 67, 102, 102
59	CC12CCC3C4CCC(=O)C=C4CCC3C1CCC2O (centres undefined)
  -19, 84, 102, 92
60	NCCc1cc(O)c(O)cc1O
  -22, 64, nt, 84
61	COc1cc(C=C2C(=O)NC(=O)NC2=O)ccc1OCc1ccc([N+](=O)[O-])cc1
  -24, nt, 99, nt
62	CCC(C)n1c(C)cc(C(N)=O)c1C (centres undefined)
  -5, 96, nt, 92
63	CCCCCCCC1C(=O)NC(=S)N(c2ccccc2)C1=O (centres undefined)
  9, nt, 107, nt
64	Cc1cc(-n2c(/C=C/c3cccs3)nc3ccccc3c2=O)ccc1Br
  nt, 102, 106, 112
65	C[N+]1(C)C2CCC1CC(OC(=O)C(CO)c1ccccc1)C2 (centres undefined)
  -33&-30&-6, 94&94, 108&107&104, 90&77
66	C=CCOc1c(OC)cccc1C1SCC(=O)Nc2n[nH]c(C)c21 (centres undefined)
  14, nt, 100, nt
67	CC12CCC3C(CC=C4CC(O)CCC43CO)C1CCC2OC(=O)c1ccccc1 (centres undefined)
  7, 72, 109, 98
68	O=C(Cc1ccccc1)N1CCN(C/C=C/c2ccccc2)CC1
  -4, 78, 100, 88
69	COc1ccc2[nH]c(C)c(CCNCc3ccc(C#N)cc3)c2c1
  7, 102, 108, 92

The listing continues.
nr | compound | HCMV UL50-53 inh | Sa growth inh second temp | GIV-Gai inh | Sa growth inh
73 | O=C1CN=C(c2ccccc2)c2oc3ccccc3c2N1 | -14 | 74 | 100 | 95
74 | CN1CCc2[nH]c(=S)c(C#N)c(-c3ccccc3)c2C1 | -30 | 67 | nt | 88
75 | CC(C)c1ccccc1N=C1SCCN1C | -10 | 89 | nt | 98
76 | O=C(CN1CC2CC(C1)c1cccc(=O)n1C2)c1ccc2cc[nH]c2c1 (centres undefined) | -11 | 84 | 100 | 90
77 | CCc1cc2c(s1)NC(=O)CN=C2c1cccs1 | -46 | 72 | 103 | 80
78 | C1=CCC2NC(C1)Cc1ccccc12 (centres undefined) | nt | 94 | 103 | 100
79 | Cc1ccc(NC(=O)N(Cc2ccc3c(c2)OCO3)C2CCN(Cc3ccccc3)CC2)cc1Cl | nt | 103 | 113 | 112
80 | CCN1C(=O)C(=C2C=C(C)N(Cc3ccco3)C(C)=C2)C(=O)N(CC)C1=S | 4 | 95 | nt | 82
81 | C/C=C(\C)C(=O)Nc1ccc(Cl)cc1C(=O)c1ccccc1 | nt | 88 | 106 | 85
82 | CCC12CN3CC(CC)(CN(C1)C3c1c(C)[nH]c(=O)[nH]c1=O)C2=O (centres undefined) | -19&-20 | 89 | 100&102 | 102
83 | O=C(Nc1ccc2c(c1)OCCO2)c1cccn(Cc2cccc(F)c2)c1=O | nt | 89 | 102 | 177
84 | Cc1ccc(C)c(NC2=NCCS2)c1 | -13 | 89 | 100 | 86
85 | CC(C(=O)N1CCC2(CC1)OCCO2)C1Sc2ccccc2NC1=O (centres undefined) | -4 | 89 | 105 | 106
86 | CCC(CO)NC1CC(C)N(C)CC1C (centres undefined) | -17 | 95 | 98 | 102
87 | CN(C)C=C1C(=O)N(C2CCCCC2)C(=O)N(C2CCCCC2)C1=O | 10 | 77 | 115 | 109
88 | CC(CC(C(N)=O)(c1ccccc1)c1ccccc1)N(C)C (centres undefined) | -50 | 89 | nt | 98
89 | CN1CC2(c3ccccc3)CN(C)CC(c3ccccc3)(C1)C2=O | 4 | 90 | 100 | 95
90 | N#Cc1cccc(NC(=O)c2sc3nc4c(cc3c2N)C2CCN4CC2)c1 | -58 | 98 | 102 | 104
91 | O=C1OCCN1P(=O)(c1ccccc1)c1ccccc1 | 6 | 105 | 94 | 103
92 | O=C(c1cccn2c(=O)c3cc(Br)ccc3nc12)N1CCC2(CC1)OCCO2 | nt | 85 | 104 | 106
93 | CCN(CC)P(=O)(Oc1cccc(C)c1)N(CC)CC | 24 | 109 | 94 | 125
